Screens deposited in PubChem by National Center for Advancing Translational Sciences (NCATS).
gsp agonist – gsp mutant agonism; Potency, µM (highest dose often 76.9 µM), for the others: at the highest dose activation (cAMP increase), usual class: activators; gsp mutant cells, cAMP HTRF, 30 min; control for the full effect not named in the record; AID 624287; hit rate 0.13% among 340,000; active = well fitted activation curve with a large enough effect; inconclusive = small, poorly fitted or top-dose-only effect, or another doubt; inactive = no such curve, though single readings can be large or run the other way; cell line not stated here;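 note: phosphodiesterase inhibitor Ro 20-1724 added with compounds to block cAMP breakdown; potency is the fitted concentration of half-maximal effect; nearly all actives have a fitted effect of over 60% in size; about a fifth of the inactives were tested at one dose only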
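Cells in DMEM/10% FBS with G418 were pretreated with compounds in DMSO plus […] (300 uM stock) for 30 min at 37C. cAMP was measured by HTRF (cAMP-d2 plus anti-cAMP antibody-K) after 30 min at room temperature.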
TRPV1 PAM – human TRPV1 potentiation | TRPV1-expressing cells, Fluo-8 calcium influx, capsaicin EC20 potentiation; host cell line not named in the record; control for the full effect not named in the record | hit rate 0.02% among 320,000 | potentiation, % at 8.33 µM; active means potentiation above 80%; inconclusive means 30% to 80%; inactive means below 30%; note: 0% is about no effect
Target sequence (Q8NER1 whole entry, looked up): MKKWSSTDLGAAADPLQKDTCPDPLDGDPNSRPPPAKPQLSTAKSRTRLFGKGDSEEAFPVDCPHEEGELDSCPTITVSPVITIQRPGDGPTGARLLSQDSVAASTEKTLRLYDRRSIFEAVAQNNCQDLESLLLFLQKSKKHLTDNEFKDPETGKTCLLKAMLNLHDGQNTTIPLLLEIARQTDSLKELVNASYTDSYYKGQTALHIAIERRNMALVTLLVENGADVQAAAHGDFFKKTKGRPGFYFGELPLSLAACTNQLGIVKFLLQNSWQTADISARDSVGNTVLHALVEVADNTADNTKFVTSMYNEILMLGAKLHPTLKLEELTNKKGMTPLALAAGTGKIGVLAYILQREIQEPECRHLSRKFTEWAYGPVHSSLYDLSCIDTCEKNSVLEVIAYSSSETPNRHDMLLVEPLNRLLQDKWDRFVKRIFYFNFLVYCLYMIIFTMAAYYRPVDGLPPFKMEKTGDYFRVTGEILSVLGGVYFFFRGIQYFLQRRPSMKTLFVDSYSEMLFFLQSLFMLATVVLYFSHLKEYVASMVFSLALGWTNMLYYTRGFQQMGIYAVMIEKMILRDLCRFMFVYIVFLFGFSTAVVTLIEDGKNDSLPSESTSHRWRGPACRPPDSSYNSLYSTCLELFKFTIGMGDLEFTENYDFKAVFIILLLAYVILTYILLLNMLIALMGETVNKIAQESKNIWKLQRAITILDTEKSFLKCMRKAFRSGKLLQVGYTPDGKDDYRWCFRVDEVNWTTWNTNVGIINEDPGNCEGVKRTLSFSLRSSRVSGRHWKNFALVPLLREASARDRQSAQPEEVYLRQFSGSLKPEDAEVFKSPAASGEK
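Fluo-8 calcium influx in TRPV1-expressing cells, kinetic read (ex 480/em 520 nm). Compound added and read 3 min for agonist activity, followed by capsaicin at EC20 final and 2 min further read for enhancement.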
Sfp inh – blocks B. subtilis Sfp PPTase activity; Q9F4F7; Biochemical Sfp PPTase activity, qHTS; Potency, µM, inactives show max response, negative = inhibition, actives largely listed as inhibitors; hit rate 3.5% among 310,000; AID 1490; active = well fitted inhibition curve with a large enough effect; inconclusive = small, poorly fitted or top-dose-only effect, or another doubt; inactive = no such curve, though single readings can be large or run the other way;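 note: the enzyme is Sfp with the accession as filed and its product quenches rhodamine fluorescence; potency is the fitted concentration of half-maximal effect; 0% = enzyme reaction without inhibitor and -100% = no enzyme wells; top concentration of the series not given in the record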
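Fluorescence-quenching assay with 15 nM Sfp, 5 uM rhodamine-CoA and 12.5 uM BHQ-2-labelled ybbR peptide in pH 7.6 Hepes/MgCl2 buffer. Enzyme was pre-incubated with compound for 15 min at room temperature. Rate was taken from the 30-min fluorescence change (525/598 nm).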
ClpP mod – qHTS Assay for Activators of ClpP; ATP-dependent Clp protease proteolytic subunit (Bacillus subtilis (strain 168)), P80244; purified B. subtilis ClpP, FRET peptide cleavage, 20 min; Potency, µM (doses to about 57.5 µM), for the others: at the highest dose activity change, negative = active; hit rate 1.9% among 340,000; active = well fitted falling curve with a large enough effect; inconclusive = small, poorly fitted or top-dose-only effect; inactive = no such curve, though single readings can be large or run the other way; note: potency is the fitted concentration of half-maximal effect; the source files actives as falling curves though it sought activators and does not explain the sign; nearly all actives have a fitted effect of over 65% in size; many hits overshoot -100%
Target sequence (P80244 whole entry, looked up): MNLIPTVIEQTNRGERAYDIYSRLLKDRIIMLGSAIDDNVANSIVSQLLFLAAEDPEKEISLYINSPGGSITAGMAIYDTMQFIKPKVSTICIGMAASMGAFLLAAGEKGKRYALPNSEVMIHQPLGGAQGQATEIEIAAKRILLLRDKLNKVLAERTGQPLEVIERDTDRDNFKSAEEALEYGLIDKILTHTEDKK
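Purified B. subtilis ClpP, 10 microg/mL final in Tris/HCl pH8 with KCl, BSA, glycerol and Tween-20, cleaved an Abz/nitrotyrosine-quenched decapeptide. Fluorescence (ex 320, em 430) was read at 0 and 20 min at room temperature. Delta was normalized to 5.8 microM ADEP and DMSO/no-enzyme controls.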
Menin MLL FP FL – inhibitors of human menin-MLL interaction, wild-type MLL peptide; FP activity change, % at 61.4 µM; 290,000 tested, under 10 active; Fluorescence polarization, fluorescein-MLL peptide displacement from menin; AID 1766; inconclusive = falling polarisation curve, or a change in total fluorescence; inactive = total fluorescence flat and polarisation flat or rising; no compound was filed as active; the % refers to the polarisation; negative = inhibition;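 note: % of control where 0% means no effect; inhibitors lower the polarisation; unlabelled MLL peptide was the positive control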
gsp antag – antagonizes gsp, the McCune-Albright syndrome mutation. Potency, µM (titrated, usually from 76.9 µM), for the others: at the highest dose activity change, negative = inhibition, most hits filed as inhibitors. hit rate 0.4% among 340,000. gsp-mutant cells, cAMP HTRF, 30 min; control for the full effect not named in the record; active = falling curve of any shape with a large fitted effect; inconclusive = falling curve, mostly with a smaller effect; inactive = flat or rising curve; cell line not stated here;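 note: intracellular cAMP measured with PDE inhibitor Ro 20-1724 present during compound exposure; potency is the fitted concentration of half-maximal effect; % is set by controls: 0 for no effect and ±100 for the full control effect; nearly all actives have a fitted effect of over 65% in size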
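G418-selected cells were plated in DMEM/10% FBS for 16-24 h at 37C, then treated with compounds plus the PDE inhibitor […] (300 uM solution added) for 30 min at 37C. Intracellular cAMP was measured by HTRF after 30 min lysis at room temperature.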
TRPML1 blocker – inhibitors of human TRPML1 channel; Q9GZU1; TRPML1-inducible cells, Ca2+ dye fluorescence, FDSS; hits give low values; inhibition of EC80 agonist-evoked calcium signal; activity change, negative = inhibition, % (concentration not given with the values); hit rate 0.02% among 390,000; AID 624415; in the data active means activity change below about -50%; inconclusive means about -30% to -50%; inactive means above about -30%;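 note: stimulus is agonist 54-4 at its EC80 concentration; % is set by controls: 0 for no effect and ±100 for the full control effect; compound concentration not given in the record; the text of the record puts the active cut at -80%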
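Calcium fluorescence in TRPML1-DL cells induced overnight with Tet: a 110 s read after compound pin addition, then a 110 s antagonist read after challenge with 54-4 at 4 uM final (EC80).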
An asterisk follows results filed as active; ? = inconclusive; nt = no result given; & = joins results of further samples; [ ] = another dose, or the depositor's remark.

SMILES	gsp agonist	TRPV1 PAM	Sfp inh	ClpP mod	Menin MLL FP FL	gsp antag	TRPML1 blocker
CCOc1ccccc1C1NC(=O)NC(C)=C1C(=O)OC1CCCC1C (stereo not given)	-39%[inhibitor]	-13	13%	0.9%	-0.3	-23%	-6
COc1ccc(NC(=O)c2ccco2)cc1NC(=O)c1cc2ccccc2o1	0%	-7	10%	80%	1.9	-8%	-12
O=c1c2ccccc2n2c(-c3cccc(F)c3)nnc2n1Cc1ccccc1	?	-21	1%	-4.5%&-8.5%	6.8	-1%	13&1
COc1ccccc1NC(=O)Oc1ccc(NC(=O)c2ccco2)cc1	-29%	-1	2%	-1.3%	0.9	-12%	-12
CCC(C)[C@H](NS(=O)(=O)c1ccc(C)cc1)C(=O)N1CCC(C(=O)N[C@@H](Cc2ccccc2)C(=O)O)CC1 (stereo not given in full)	19%	15	7%	-2.8%	-0.1	6%	-8
CCOC(=O)[C@@H]1[C@H]2COc3ccc(Br)cc3[C@H]2N2C(=O)N(c3ccc(Cl)cc3)C(=O)[C@]12C	-3%	nt	nt	-0.2%	nt	-14%	22
COc1ccc(NS(=O)(=O)c2cn(C)cn2)c(OC)c1	4%	1	16%	-3.2%	-4.8	9%	0
O=c1[nH]c(C2CCN(S(=O)(=O)c3cccc(Cl)c3)CC2)nc2c1nnn2Cc1ccccc1	-16%[15.4 µM]	-7	3%	-2.8%	-1.0	0%	15
Cc1cc(OCCOCCN(C)CCO)cc(C)c1Cl	-9%	-3	15%	-0.7%	1.8	-6%	17
O=C(O)C1=C(C(=O)N2CCN(C(=O)c3ccco3)CC2)CCCC1	3%	1	-22%	0.3%	2.7	4%	17
COc1ccccc1-c1oc2ccccc2c1C#CC1(N)CCCCC1	nt	7	nt	4.6%	nt	4%	-11
CS(=O)(=O)N1CCC(C(=O)Nc2ccc(F)cc2)CC1	-6%	3	17%	1.0%	-4.7	7%	24
CCN(CCCNC(=O)Cn1cc2c(n1)CCCC2)c1cccc(C)c1	-11%	-13	2%	-3.2%	-1.3	-1%	16
c1ccc(-n2nc3c(ccc4cnnc43)[nH]2)cc1	?	11	-10%	11µM*	0.8	-3%	-5
Cc1cc(C)nc(Nc2nc(C)c3cc4c(cc3n2)OCO4)n1	-40%[inhibitor]	3	20%	16µM*	-1.2	8%	-1
CCOC(=O)c1nnn(-c2nonc2N)c1CN1CCCCCC1	-26%	-6	7%	-1.6%	-1.2	-4%	1
Cc1cccc(NC(=O)c2cccc(C(=O)Nc3cccc(C)c3C)n2)c1C	0%[15.4 µM]	1	11%	-21%	-3.3	11%	10
CCOC(=O)c1cccc(-n2c(-c3ccc(OC)cc3)nc3nc4ccccc4nc32)c1	nt	6	-6%	nt	0.9	nt	nt
CCC/C(=C1/c2ccccc2C(=O)N1c1ccccc1)c1cnc(OC)nc1	nt	nt	nt	-1.0%	nt	-16%	66
Cc1ccc(CNC(=O)Cn2nnc(C(=O)Nc3cc(C)ccc3C)c2N)cc1	?	-9	9%	-1.4%	-0.1	8%	-2
Cn1cnnc1SCC(=O)NNC(=O)COc1ccc(Cl)cc1	-1%	3	6%	-0.4%	-0.3	12%	-9
Cc1sc(NC(=O)CSc2nnc(COc3ccc(Cl)cc3)n2C)c(C#N)c1C	-26%	0	2%	0.4%	21	14%	0
CCOC(=O)c1c(-n2cccc2)sc2c1CCCC2=O	?	-32	-3%	-0.5%	4.4	7%	-12
O=C(Nc1ccc(O)c(C(=O)O)c1)c1ccc2c(c1)C(=O)N(CC1CCCO1)C2=O (stereo not given)	9%	3	-9%	0.3%	0.3	-1%	-11
COC(=O)c1ccccc1NC(=O)Cn1c(=O)oc2ccc(Cl)cc21	-6%	5	11%	-7.3%	5.2	-5%	-14
Additional entries follow.
SMILES	gsp agonist	TRPV1 PAM	Sfp inh	ClpP mod	Menin MLL FP FL	gsp antag	TRPML1 blocker
Cc1ccc(-n2ncc3c(=O)n(CC#N)cnc32)cc1C	-4%	0	7%	-13%	-0.7	7%	-6
O/N=C/c1ccc2cccc(OCc3ccccc3)c2n1	8%	?	-8%	4.0%	-5.0	0%	nt
O=C(NCC1CCCCC1)c1ccc(Cl)nc1	-7%	6	8%	nt	-1.3	10%	-19
Cc1ccc(/C=N/NC(=O)c2ccc(-n3cccc3)cc2)o1	-5%	-3	8%	-3.1%	nt	-1%	17
CCC(=O)c1ccc(N2CCN(C(=O)c3cccs3)CC2)c(F)c1	-1%	16	5%	-4.0%	-1.8	?	28
Cc1cc(C)c(C#N)c(SCc2[nH]nc3c2C(c2ccc(F)cc2)C(C#N)=C(N)O3)n1 (stereo not given)	0%	4	-16%	1.5%	5.0	-11%	4
COc1ccc(N2CCN(C(=O)COC(=O)c3cnccn3)CC2)cc1	8%	-4	nt	3.5%	nt	4%	16
Cc1csc(SCC(=O)NCCc2ccc(Cl)cc2)n1	7%	-10	3%	-0.5%	5.1	5%	-2
COCCn1nnnc1C(c1ccc(OC)cc1)N1CCC(C)CC1 (stereo not given)	0%	3	10%	-1.8%	0.1	5%	-18
O=C(Nc1ncc(Cc2ccccc2Cl)s1)c1ccc([N+](=O)[O-])cc1	-2%	1	8%	3.5%	2.6	12%	-4
O=C1NCC2=C1C(c1ccccc1)Nc1ccccc1N2 (stereo not given)	8%	8	-9%	-4.8%	?	5%	9
CN(CC(=O)NCCc1ccccn1)S(=O)(=O)c1ccc(Cl)cc1	0%[15.4 µM]	6	17%	-0.1%	0.1	3%	5
Cc1ccc(S(=O)(=O)Nc2c(C)nn(C)c2C)c(C)c1	37%[15.4 µM]	1	nt	nt	nt	-10%	-11
Cc1cc(C)c2c(N)c(C(=O)NC3CCCC3)sc2n1	29%[15.4 µM]	-6	11%	nt	-4.7	5%	2
CCNc1nc(NC(C)C)nc(SCCOC(=O)c2ccccc2)n1	-5%[15.4 µM]	-1	12%	0.2%	-2.7	-4%	13
O=C(CCOc1ccccc1)Nc1ccc([N+](=O)[O-])cc1	?	-10	-1%	nt	0.9	0%	-5
COc1cc(/C=N/NC(=O)Cc2csc(N3CCOCC3)n2)cc(OC)c1O	-14%	-9	-20%	-1.2%	-4.2	-4%	10
O=C(Nn1c(C2CCCCC2)nc2ccccc2c1=O)c1ccc([N+](=O)[O-])cc1Cl	-2%[15.4 µM]	-10	8%	nt	1.8	-1%	-2
CC(C)CCNc1nc(N)c([N+](=O)[O-])c(NCCO)n1	-4%[15.4 µM]	13	17%	nt	-6.3	11%	9
O=C(NN1C(=O)C2C3C=CC(C4CC34)C2C1=O)c1cccc(Cl)c1 (stereo not given)	-5%[15.4 µM]	-3	-20%	1.8%	2.7	9%	-6
O=C1C(=Cc2ccco2)C(=O)c2ccccc21	-15%	-1	-25%	0.7%	12	4%	15
CCOC(=O)c1cnc2nc(C)[nH]n2c1=O	20%	0	-6%	-17%	-0.2	4%	10
N#CC12C(=O)NC(=O)C1(C#N)C21CCCC1 (stereo not given)	-5%	nt	nt	-0.2%	nt	-3%	10
O=C(Nc1ccc(C(=O)O)cc1)/C(=C\c1ccc([N+](=O)[O-])cc1)NC(=O)c1ccc(Br)cc1	-18%	10	-1%	nt	-1.0	5%	45
CCCn1c(N)c(C(=O)CSc2ncnc3sccc23)c(=O)n(C)c1=O	?	-9	nt	0.9%	nt	-3%	6
(more compounds)
SMILES	gsp agonist	TRPV1 PAM	Sfp inh	ClpP mod	Menin MLL FP FL	gsp antag	TRPML1 blocker
CCS(=O)(=O)c1ncc(Cl)c(C(=O)Nc2ccc(S(=O)(=O)N3CCC(C)CC3)cc2)n1	-13%[15.4 µM]	16	-19%	nt	7.7	-1%	-13
CCOC(=O)c1ccc(NC(=O)N2CCc3ccccc32)cc1	-15%	-4	30%	-7.3%	0.9	-5%	13
CCCn1c(N)c(N(CCOC)C(=O)CSCC(=O)Nc2ccc(OC)cc2)c(=O)[nH]c1=O	-9%[15.4 µM]	1	nt	-0.6%	nt	5%	21
COc1ccccc1-c1cc2nc(-c3ccccc3)cc(N3CCN(C(=O)c4ccco4)CC3)n2n1	8%	nt	nt	4.5%	nt	nt	1
CCn1nnnc1SCC(=O)NCc1cccs1	-15%	-4	-5%	-4.6%	-3.2	0%	-5
CC(C)Oc1ccc(C(CC(=O)N(C)CCC#N)c2ccc(F)cc2)cc1 (stereo not given)	-69%[inhibitor]	-18	9%	0.8%	1.8	6%	27
O=C(NCCCNC(=O)c1ccccn1)c1cccc(F)c1	4%	0	13%	nt	3.5	5%	-8
COc1ccc(N(CC(=O)N2CCN(Cc3ccc4c(c3)OCO4)CC2)S(C)(=O)=O)cc1OC	7%	5	21%	1.0%	1.4	3%	-13
CCn1c(SCc2ccccc2)nnc1C1CCN(S(=O)(=O)c2ccc(OC)cc2)CC1	-6%	-1	6%	-0.9%	6.7	?	4
CC(=O)c1ccc(OCc2cc(C(=O)NC(C)CCn3cccn3)no2)cc1 (stereo not given)	-68%[inhibitor]	-12	6%	1.5%	0.3	-9%	9
COc1ccc(NCC(=O)N/N=C2\CCCC(C)C2)cc1 (stereo not given)	-12%[15.4 µM]	3	1%	nt	7.5	-1%	-14
CC1CN(C(=O)c2ccc(Cl)c(S(=O)(=O)NCc3ccco3)c2)CC(C)O1 (stereo not given)	-29%	0	nt	-0.4%	nt	6%	-3
COc1cccc(CN(C)C(=O)CCN(c2ccccc2)S(=O)(=O)c2ccc(C)cc2)c1OC	41%[15.4 µM]	3	nt	nt	nt	?	6
CCC(=O)Nc1cccc(NC(=O)CN2CCN(c3ccccc3OC)CC2)c1	?	13	0%	240%	4.0	0%	-4
O=C(OCC(=O)N1CCOCC1)c1cccc(S(=O)(=O)N2CCCc3ccccc32)c1	?	8	-4%	0.4%	6.5	-24%	nt
O=C(CCc1nnc2ccc(N3CCOCC3)nn12)Nc1ccc(F)cc1F	?	3	18%	-4.3%	4.1	11%	8
CC(=O)Nc1ncnc2c1c(-c1ccc(Cl)cc1)nn2C(C)(C)C	?	-22	5%	4.0%	-1.7	-8%	3
COc1ccc(CCN2C(=O)c3[nH]nc(-c4ccccc4O)c3C2c2ccccc2)cc1OC (stereo not given)	0%	18	16%	-9.9%	0.7	-30%	0

Outcome played no part in choosing rows. Share with any hit: about 4.9%.
